MT1-MMP act inh: inhibitors of human MT1-MMP activation; P50281; HT1080 RFP-PRO-GFP cells, GFP/RFP ratio fluorescence, overnight; percent of plate control window, DMSO zero; GFP/RFP ratio change, % at 20 µM; actives 0.061% (n = 360,000); AID 651647;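 active means GFP/RFP ratio change of at least 30% with cell ATP level not reduced by more than half and red fluorescence within 50% of control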; further: strong numbers were not always called active
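Assay system: HT1080 RFP-PRO-GFP cells | Dosing: 20 µM single dose, 1% DMSO | Incubation: Cells overnight before dosing, compound overnight, 37 °C, 5% CO2 | Evaluation: GFP/RFP fluorescence ratio | Control set: DMSO-only wells and HT1080 RFP-L50D-GFP cell wells as references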
CSC inhib: cancer stem cell inhibition; actives 1.1% (n = 300,000); inhibition, % at 7.5 µM; cancer stem cell-like cells viability, luminescence;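 active means mean at 75% or more and at least half the replicates too; inconclusive means mean and replicates disagree; tested in HMLE shEcad cells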;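 further: 0% = median of negative and 100% = median of positive control wells; the first replicate is given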
HIV Env fusion: inhibitors of HIV Env-mediated cell fusion; HeLa-JRFL Env/CEM21 cell fusion, luciferase; inhibition, % at 12.3 µM; actives 1.1% (n = 360,000);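 active means mean replicate inhibition score of at least 50 and every replicate individually at or above 50; inconclusive means only one of the two criteria met; inactive means mean below 50 and not all replicates reaching 50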;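 further: 0% = plate neutral controls and 100% = maraviroc near 300 nM; one replicate is shown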
eIF4H FP inh: inhibitors of RNA binding by human eIF4H. AID 2012. actives 0.94% (n = 290,000). Q15056. eIF4H fluorescence polarization binding assay. inhibition, % at 35 µM;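 active means 50% or more with normal probe brightness, or confirmed in later tests; inconclusive means above 50% with abnormal brightness, or retests that disagree; inactive means below 50% or failed in later tests; about a fifth of its hits are not listed in these tables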;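 further: calls also rest on retests at 20 µM and on dose response follow-up; 0% = protein and probe with vehicle and 100% = probe without protein; strong numbers were not always called active; many hits fall short of the cut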
Yeast UUG start: alters start codon recognition fidelity in yeast | S. cerevisiae UUG-firefly luciferase reporter, luminescence/redox ratio | activity score, % at 18.7 µM | actives 0.13% (n = 350,000) | AID 602363;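 active means replicate mean at a twofold rise or more, about +100% in these data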;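 further: firefly luciferase made from a UUG start codon reports start codon fidelity; reporter light over untreated wells divided by growth signal over untreated wells; some hits fall short of that in this replicate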
Rce1 inh: yeast Ras-converting enzyme inhibition; Q03530; yeast membranes, quenched prenylated peptide cleavage fluorescence; calls only; actives 0.27% (n = 290,000); AID 2563;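 active means fall in fluorescence gain of 50% or more versus controls, with final raw signal at or below 3038400; inconclusive means same 50% fall but final raw signal above 3038400; inactive means fall in fluorescence gain under 50%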;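 further: plate controls were neutral control wells for no effect and wells lacking membranes for full effect; tested at 10 µM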
Target sequence (Q03530 whole entry, looked up): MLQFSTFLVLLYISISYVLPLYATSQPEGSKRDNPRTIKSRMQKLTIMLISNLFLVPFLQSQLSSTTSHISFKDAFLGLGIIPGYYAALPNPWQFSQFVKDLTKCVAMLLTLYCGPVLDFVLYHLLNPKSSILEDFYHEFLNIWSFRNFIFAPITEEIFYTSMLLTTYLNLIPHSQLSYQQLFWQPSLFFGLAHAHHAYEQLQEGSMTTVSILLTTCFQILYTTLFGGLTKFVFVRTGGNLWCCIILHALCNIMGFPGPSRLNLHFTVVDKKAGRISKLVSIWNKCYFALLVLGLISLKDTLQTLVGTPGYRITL
PABP FP inh: PABP-poly(A) binding inhibition; actives 1% (n = 290,000); inhibition, % at 35 µM; PABP-poly(A) RNA binding, fluorescence polarization; AID 2014;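 active means 50% or more with normal probe brightness, or confirmed in later tests; inconclusive means above 50% with abnormal brightness, or retests that disagree; inactive means below 50% or failed in later tests; about a fifth of its hits are not listed in these tables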;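 further: calls also rest on retests at 20 µM and on dose response follow-up; controls were probe without protein and protein plus probe with vehicle; some compounds called inactive have numbers as strong as hits; many hits fall short of the cut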
Target sequence (P11940 whole entry, looked up): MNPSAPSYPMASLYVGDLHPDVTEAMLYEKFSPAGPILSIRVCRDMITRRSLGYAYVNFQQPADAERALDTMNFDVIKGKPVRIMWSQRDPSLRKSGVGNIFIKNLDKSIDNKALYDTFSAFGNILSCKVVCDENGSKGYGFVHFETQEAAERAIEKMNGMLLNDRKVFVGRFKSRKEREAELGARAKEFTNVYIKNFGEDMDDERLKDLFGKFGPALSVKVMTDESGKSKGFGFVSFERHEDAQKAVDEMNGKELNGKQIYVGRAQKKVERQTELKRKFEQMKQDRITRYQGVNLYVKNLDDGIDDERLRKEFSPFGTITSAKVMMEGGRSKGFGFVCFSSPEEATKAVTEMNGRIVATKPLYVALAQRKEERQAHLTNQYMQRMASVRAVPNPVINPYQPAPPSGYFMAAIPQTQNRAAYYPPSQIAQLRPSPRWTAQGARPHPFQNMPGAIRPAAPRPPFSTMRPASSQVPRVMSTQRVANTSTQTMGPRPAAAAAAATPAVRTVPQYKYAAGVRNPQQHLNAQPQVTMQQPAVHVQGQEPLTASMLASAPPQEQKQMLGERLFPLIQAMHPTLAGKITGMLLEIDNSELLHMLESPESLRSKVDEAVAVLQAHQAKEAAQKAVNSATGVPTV
MT1-MMP act inh RFP: further read-out of MT1-MMP act inh, marked with its call; RFP signal change, %; measured here: RFP expression control read;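 0 = vehicle wells; hits needed this value within 50% of zero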
An asterisk follows results filed as active; i = inactive; ? = inconclusive; nt = not tested or not shown. Only part of the results is shown. The share of hits here may be higher or lower than overall.

SMILES | MT1-MMP act inh | MT1-MMP act inh RFP | CSC inhib | HIV Env fusion | eIF4H FP inh | Yeast UUG start | Rce1 inh | PABP FP inh
O=C1CC(Cc2ccc(Br)cc2)C(=O)N1c1ccccc1 (stereo not drawn) | 1 | -3 | -19 | 4 | 1 | -9 | i | 1
CCc1nnc(NC(=O)CN2C(=O)CCC2=O)s1 | 4 | 1 | nt | 2 | -4 | -13 | i | 10
O=C1/C(=C/Nc2ccc3c(c2)OCO3)CCc2ccccc21 | 19 | 17 | 57 | nt | 2 | -58 | i | 12
CCOc1ccc(S(=O)(=O)Nc2ccc(C(=O)NCC3(N4CCCCC4)CCCCC3)cc2)cc1 | -1 | 2 | 19 | -14 | nt | 1 | i | nt
CC1(C)CC(=O)C(C(O)c2cccc([N+](=O)[O-])c2)C(C)(C)N1 (stereo not drawn) | -2 | 0 | 6 | -11 | 6 | -4 | i | 3
O=C(CN(C(=O)CCC(=O)Nc1ccccn1)c1ccc(F)cc1)NCCc1ccccc1 | -5 | -2 | nt | -13 | 3 | -2 | i | 9
Cc1ccccc1N(C(=O)c1ccco1)C(C(=O)NC1CCCC1)c1cccnc1 (stereo not drawn) | 0 | 1 | nt | 6 | -4 | 5 | i | 0
Cc1ccccc1NC(=O)c1ccc(Cl)c(NC(=O)c2cccnc2)c1 | nt | nt | -2 | 0 | 1 | nt | i | -6
CCOc1cc(/C=N/NC(=O)C(N)=O)cc(Br)c1O | 4 | 6 | 0 | -37 | -11 | nt | i | -5
CCOc1ccc(NC(=O)COc2ccccc2C(=O)NCc2ccccc2)cc1 | 5 | -9 | 11 | nt | nt | -6 | nt | nt
CCC(Sc1nc2ccccc2o1)C(=O)O (stereo not drawn) | 1 | 2 | 7 | 3 | -1 | nt | i | -8
O=C(OCCN1CCCC1=O)c1cc(F)c(F)c(F)c1F | -2 | 1 | -10 | 11 | 2 | -10 | i | 13
COc1ccc(-c2csc(-c3cc4ccccc4oc3=N)n2)cc1 | 1 | 7 | 4 | 21 | 7 | nt | i | -15
O=C(CCN1C(=O)/C(=C/c2cccs2)SC1=S)Nc1cccc(C(=O)O)c1 | -5 | 8 | 16 | 2 | -2 | -5 | i | 2
O=C(COCc1cc(-c2ccc3c(c2)OCO3)on1)N1CCN(c2ccccc2)CC1 | -1 | 3 | 45 | 3 | -1 | -22 | i | -17
Cc1ccc(S(=O)(=O)N(C)C)cc1NC(=O)CN1C(=O)NC2(CCCc3ccccc32)C1=O (stereo not drawn) | -2 | 2 | nt | -80 | -3 | nt | i | 2
COc1cccc(NC(=O)CSc2nnc(CNC(=O)c3ccccc3)n2C)c1 | 4 | 3 | -22 | -81 | 0 | -19 | i | 7
CCCNC(=O)C(=O)Nc1ccc2c(c1)N(S(=O)(=O)c1cccs1)CCC2 | -4 | -8 | nt | 2 | nt | -7 | i | nt
COCCn1c(C)cc(C(=O)CSc2ncn[nH]2)c1C | 2 | 1 | 6 | -46 | 4 | -14 | i | 1
Cc1ccc(C)c(NC(=S)N(CCN(C)C)C(C)c2ccccn2)c1 (stereo not drawn) | 3 | 6 | -12 | 3 | 5 | 7 | i | -2
Cc1ccccc1CN1CCC(n2nccc2NC(=O)c2cccnc2)CC1 | -1 | 6 | 2 | -14 | -11 | 6 | i | -1
CN(C)C(CNC(=O)CCc1c[nH]c2ccccc12)c1ccccc1 (stereo not drawn) | -4 | 1 | -18 | -9 | -2 | -4 | i | 1
CCc1cc(C(=O)Nc2cc(S(=O)(=O)N(CC)CC)ccc2N2CCN(C)CC2)sc1C | 0 | 2 | -6 | -9 | nt | 5 | i | nt
CCCn1nnnc1SCC(=O)NCc1ccc2c(c1)OCO2 | 7 | 4 | 13 | nt | -5 | -5 | i | 1
CCC1c2ccc(C)n2CCN1C(=O)Nc1cc(Cl)ccc1OC (stereo not drawn) | -22 | -8 | -7 | nt | 43 | -6 | i | 0
Carrying on.
SMILES | MT1-MMP act inh | MT1-MMP act inh RFP | CSC inhib | HIV Env fusion | eIF4H FP inh | Yeast UUG start | Rce1 inh | PABP FP inh
COc1ccc(C2c3c(ccc4ccccc34)Oc3ncn4nc(Cc5ccc(OC)c(OC)c5)nc4c32)cc1 (stereo not drawn) | nt | nt | 12 | nt | 2 | nt | i | 6
COC(=O)c1ccc(OCC(O)CN2C(=O)c3ccccc3C2=O)cc1 (stereo not drawn) | 0 | 4 | -10 | -10 | -16 | -2 | i | -1
Cc1nnc(SCC(=O)N(C(C)C)C(C)C)nc1C | 7 | 3 | -10 | nt | -4 | nt | i | -4
CCc1ccc(N=CC23c4ccccc4C(c4ccccc42)C2C(=O)N(c4ccc(OC)cc4)C(=O)C23)cc1 (stereo not drawn) | -2 | -5 | -9 | -87 | 9 | 6 | i | -5
CN(C)CCOCCOc1ccc(Cl)c2ccccc12 | -10 | -6 | 19 | 2 | 2 | -9 | i | -7
COc1ccc(N(CC(=O)Nc2cccc(N(C)S(C)(=O)=O)c2)S(=O)(=O)c2ccc(F)cc2)cc1 | -5 | -2 | 24 | 18 | -10 | -1 | i | -9
CC(=O)NC1=NN(C(C)=O)C(C)(c2cccs2)S1 (stereo not drawn) | -7 | -14 | 8 | nt | -5 | -8 | i | -17
Cc1nnc(NC(=O)CSc2cn(CCNC(=O)c3ccccc3)c3ccccc23)s1 | 1 | 0 | 11 | -5 | ? | -16 | i | 3
Cc1cccc(NC(=O)CNC(=O)c2ccc(-n3cncn3)c([N+](=O)[O-])c2)c1C | 5 | 1 | -14 | -3 | nt | -4 | i | nt
CCCCC(CC)C(=O)Nc1cc(C(=O)NCc2ccc(C)cc2)ccc1N1CCC2(CC1)CC(c1cccc(Br)c1)=NO2 (stereo not drawn) | 1 | 1 | -3 | 25 | nt | -27 | nt | nt
O=C(CS(=O)(=O)c1c[nH]c2ccccc12)NC1CCCCC1 | 1 | 3 | 2 | 4 | -2 | -29 | i | 8
COc1ccc(CNC(=O)/C(C)=C\C(=O)O)cc1 | -1 | 0 | -7 | -43 | -5 | nt | i | 1
CCC(=O)Nc1nn(CC(C)C)c2nc3ccc(C)cc3cc12 | 2 | 1 | -8 | -7 | -7 | -2 | i | 6
Cc1ccccc1N1CCN(C2CCCN(C(=O)CCC(=O)N(C)C)C2)CC1 (stereo not drawn) | -2 | 0 | -4 | 13 | -7 | -17 | i | 2
CC(C)(C)C(=O)NC1CCN(S(C)(=O)=O)CC1 | -2 | -5 | 16 | nt | -2 | -15 | nt | ?
O=C(CN1C(=O)NC2NC(=O)NC21)N/N=C/c1ccccc1F (stereo not drawn) | nt | nt | -6 | nt | -7 | nt | i | 16
Cc1ccc([C@H]2C(C(=O)O)=CC[C@@H](c3ccc(C)cc3)N2S(=O)(=O)c2ccccc2C)cc1 | 0 | 4 | nt | -22 | nt | 6 | nt | nt
O=C(NCc1ccccc1)c1ccc(CS(=O)(=O)Cc2ccccc2F)o1 | -1 | -3 | -7 | 10 | 0 | -2 | i | -6
Cc1ccc(N(Cc2ccco2)C(=O)c2ccc(N3CCCCC3)c([N+](=O)[O-])c2)cc1 | -13 | -16 | 64 | 21 | 1 | -8 | i | 11
COc1ccc(OC)c(S(=O)(=O)Nc2ccccc2C(=O)O)c1 | 1 | 3 | 0 | -9 | 5 | 22 | i | 11
CC1(Cc2cccc(F)c2)C(=O)Nc2ccc(S(=O)(=O)NC3CCCCC3)cc21 (stereo not drawn) | -12 | -6 | nt | 58* | nt | 18 | nt | nt
Cc1cc(C)c(NC(=O)Cn2nc(-c3ccccc3)nc2-c2ccccc2)c(C)c1 | 1 | -1 | 19 | -31 | -8 | nt | i | -13
CCOP(=O)(OCC)c1nc(-c2cccc3ccccc23)oc1N1CCOCC1 | -3 | -2 | -8 | 2 | 0 | nt | ? | 2
O=C1/C(=C\c2ccccc2)SC(=S)N1CCC(=O)N1CCCCC1CCO (stereo not drawn) | 5 | -6 | -7 | -1 | 0 | -5 | i | 5
COc1ccccc1C/C(N)=N/OC(=O)COc1ccc2ccccc2c1 | 10 | 5 | 20 | nt | 2 | 4 | i | -5

Entries of single compounds from above:
COc1ccc(OC)c(S(=O)(=O)Nc2ccccc2C(=O)O)c1 reads MT1-MMP act inh = 1; MT1-MMP act inh RFP = 3; CSC inhib = 0; HIV Env fusion = -9; eIF4H FP inh = 5; Yeast UUG start = 22; Rce1 inh = i; PABP FP inh = 11
COC(=O)c1ccc(OCC(O)CN2C(=O)c3ccccc3C2=O)cc1 (stereo not drawn) reads MT1-MMP act inh = 0; MT1-MMP act inh RFP = 4; CSC inhib = -10; HIV Env fusion = -10; eIF4H FP inh = -16; Yeast UUG start = -2; Rce1 inh = i; PABP FP inh = -1

Carrying on:
SMILES | MT1-MMP act inh | MT1-MMP act inh RFP | CSC inhib | HIV Env fusion | eIF4H FP inh | Yeast UUG start | Rce1 inh | PABP FP inh
O=C1Nc2ccc(S(=O)(=O)N3CCCC3)c3ccc(S(=O)(=O)N4CCCC4)c1c23 | -18 | -14 | 0 | 19 | 3 | -11 | i | -1
O=C(NCCc1ccccc1Cl)C1CCC(=O)N(CC2CCCCC2)C1 (stereo not drawn) | 3 | 0 | -13 | 2 | -6 | -15 | i | 0
Cc1nnn(C23C[C@@H]4C[C@@H](CC(C(=O)N5CCN(c6ccccc6)CC5)(C4)C2)C3)n1 | 1 | -4 | -21 | 10 | 6 | 9 | i | -8
O=C(N/C(=C/c1cccc([N+](=O)[O-])c1)C(=O)N1CCCCC1)c1ccco1 | -3 | 1 | 1 | 8 | -2 | 23 | i | -11
O=C1CN(C(=O)CNCc2ccc(Cl)cc2)c2ccccc2N1 | 0 | 4 | 2 | -28 | 3 | -12 | i | 13
FC(F)(F)c1cccc(Cn2cnc(NC(=S)NCCc3ccccc3)n2)c1 | 4 | 1 | -10 | -18 | 3 | nt | i | 2
CCOC(=O)C1CCCN(C(=O)c2ccc(Cl)c(S(=O)(=O)N3CCCCCC3)c2)C1 (stereo not drawn) | 5 | -14 | -11 | 41 | -1 | nt | i | 10
O=C(/C=C\c1ccccc1OC(=O)c1ccccc1F)c1cc2ccccc2o1 | 2 | -2 | nt | -50 | 2 | -6 | i | -8
O=C(NNC(=S)NC(=O)c1cccnc1)c1ccc(F)cc1 | 8 | 10 | 1 | 2 | 8 | -28 | i | -2
COCCNC(=O)CS(=O)(=O)Cc1nc(-c2ccc(C)cc2)oc1C | 0 | -1 | 8 | -7 | -1 | -12 | i | 2
CSC1=NCCN1C(=O)COc1ccc2ccccc2c1 | 0 | 2 | -4 | 4 | -4 | -19 | i | 10
Cc1cc(OC(C)C(=O)NCc2ccccn2)c2c(C)c(C)c(=O)oc2c1 (stereo not drawn) | 2 | 2 | -17 | 11 | -3 | -20 | i | 4
COC(=O)c1cccc(NC(=O)CCCOc2ccccc2)c1 | 4 | 1 | 1 | -9 | -1 | -13 | nt | -9
O=C(Nc1ccccc1)[C@@H]1CC=C[C@@H]2CCN(Cc3ccccc3)C(=O)[C@@H]21 | -1 | 4 | -2 | 4 | nt | -6 | i | nt
CC1=NC(=O)C(N=Nc2cccc(O)c2)N1c1ccccc1 (stereo not drawn) | 2 | -3 | 55 | -78 | -14 | nt | i | 19
COc1ccc(C(=O)Nc2c(F)c(F)c(F)c(F)c2F)c(OC)c1 | 6 | 7 | 1 | nt | -1 | -12 | i | -5
O=c1c2ccccc2ncn1-c1ccccc1F | 0 | 3 | -14 | 17 | -3 | -11 | i | 1
